Mtb growth – M. tuberculosis H37Rv growth inhibitors, H37Rv strain (AID 1626). inhibition, % at 10 µM, or IC50 in µM where a hit was titrated. 220,000 tested, 0.95% active. M. tuberculosis H37Rv growth inhibition; higher % means a stronger effect;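 active = confirmed in a dose series; inconclusive = inhibition above 80% but not taken into the dose series; inactive = below 80% or under 30% at every dose of the series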;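 also: bacteria incubated seven days before Alamar blue readout; 0% = bacteria only wells and 100% = bacteria with antibiotic wells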
Arbovirus anti – antivirals against arbovirus infection, primary screen, cell-based, full library, 10K replicate subset; 200,000 tested, 0.37% active; arbovirus infection cell-based antiviral screen; inhibition, % at 10 µM; AID 1251, 2008;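 active = inhibition from about 30%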;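 also: bluetongue infection of BSR cells; cell survival read as ATP light after 72 h; 0% = infected wells without compound and 100% = uninfected wells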
YopH PTP inh – YopH tyrosine phosphatase inhibitors, primary screen, biochemical, fluorescence Ex485/Em525. YopH tyrosine phosphatase [Yersinia enterocolitica]. inhibition, %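 (about 10 µM by stock and volumes)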. 140,000 tested, 0.16% active. AID 898, 2007;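 active = inhibition of 50% or more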;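 also: controls were vehicle for no effect and minimum signal wells for full effect; inactives centre near -20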
RecA splice inh – Mtb RecA intein splicing inhibitors, primary screen, biochemical, fluorescence, HTS. Protein RecA (Mycobacterium tuberculosis (strain ATCC 25618 / H37Rv)), P9WHJ3. 290,000 tested, 0.75% active. AID 2221, 2009. inhibition, %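 (about 9 µM by stock and volumes)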. cell-free RecA intein splicing; in the data active = inhibition above about 30%; inconclusive = no clear call, values can overlap the other calls;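 also: 0% = vehicle wells and 100% = reference inhibitor control wells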
Target sequence (P9WHJ3 whole entry, looked up, canonical isoform): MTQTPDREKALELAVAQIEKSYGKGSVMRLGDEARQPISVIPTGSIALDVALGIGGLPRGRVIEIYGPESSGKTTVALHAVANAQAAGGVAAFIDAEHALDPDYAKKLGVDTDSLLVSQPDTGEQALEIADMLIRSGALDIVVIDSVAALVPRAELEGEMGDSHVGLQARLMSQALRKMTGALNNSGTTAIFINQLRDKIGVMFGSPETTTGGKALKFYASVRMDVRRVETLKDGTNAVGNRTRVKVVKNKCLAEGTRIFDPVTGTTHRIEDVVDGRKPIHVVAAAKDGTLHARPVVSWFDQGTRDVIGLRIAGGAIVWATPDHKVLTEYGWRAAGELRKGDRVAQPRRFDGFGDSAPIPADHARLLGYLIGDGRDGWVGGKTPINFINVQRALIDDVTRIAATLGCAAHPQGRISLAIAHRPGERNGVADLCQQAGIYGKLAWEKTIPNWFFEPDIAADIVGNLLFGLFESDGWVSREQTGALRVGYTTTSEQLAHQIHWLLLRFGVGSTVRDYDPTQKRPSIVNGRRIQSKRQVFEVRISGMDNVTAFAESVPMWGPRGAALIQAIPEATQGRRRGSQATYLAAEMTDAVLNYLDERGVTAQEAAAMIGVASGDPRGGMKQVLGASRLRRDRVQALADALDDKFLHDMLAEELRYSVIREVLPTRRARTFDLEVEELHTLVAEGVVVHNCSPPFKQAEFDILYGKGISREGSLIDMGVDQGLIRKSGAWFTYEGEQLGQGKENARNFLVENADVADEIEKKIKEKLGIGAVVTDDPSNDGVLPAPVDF
Mtb bLac sens – beta-lactam sensitization of Mtb H37Rv, H37Rv. M. tuberculosis H37Rv growth with meropenem, percent inhibition; hits of this screen are not shown here. inhibition, % at 25 µM. 330,000 tested, 0.27% active;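 active = about 74% or more and at least 40 points above the plate without the antibiotic, then above 30% in a dose series; inconclusive = first-round hits that could not be retested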;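 also: growth measured after seven days incubation then overnight dye step; 0% = bacteria only wells and 100% = bacteria with antibiotic; twin plates without the antibiotic show which effects depend on it; some results filed as inactive read as strong as hits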
Arbovirus anti repeat – further read-out of Arbovirus anti, marked with its call; inhibition, %; measured here: 10K subset replicate screen; many hits read low in the repeat;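 first of two repeat runs on a subset; 0% = infected and 100% = uninfected wells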
* hit, by the source's call; u = inconclusive; x = not tested or not shown. Some of the compounds tested. The share of hits here may be higher or lower than overall.

SMILES	Mtb growth	Arbovirus anti	YopH PTP inh	RecA splice inh	Mtb bLac sens	others
Cc1cccc(CC(=O)N2CCCC2)c1	x	x	x	-1.6	-2
COc1ccc(CCNc2ccncn2)cc1	4%	5	4	-1.3	8
CC1CCC(NC(=O)CCNS(=O)(=O)c2ccc3c(c2)CCC(=O)N3)CC1 (centres undefined)	x	x	x	-1.1	-6
CCCCSc1nnc2n(CCc3ccccc3)c(=O)c3c4c(sc3n12)COC(C)(C)C4	2%	-2	-1	1.6	-7
CCOC(=O)C1=C(C)NC(=O)NC1c1ccco1 (centres undefined)	-2%	4	3	x	-2	Arbovirus anti repeat=1
O=C(Nc1ccc(F)cc1)c1c(O)c2c(n(Cc3ccccc3)c1=O)CCCC2	-5%	1	-18	-1.1	-3
CC(=O)Nc1c(Br)cc(N2C(=O)CCC2=O)cc1Br	-7%	4	-24	1.3	2
COc1ccccc1N1CCN(C(=O)/C=C/c2ccc3c(c2)OCO3)CC1	3%	4	-10	2.3	16
O=S(=O)(c1ccc(F)cc1)N1CCC(N2CCCCCC2)CC1	-3%	-11	-3	2.5	3
O=C(CCc1ccccc1)OCC(=O)c1ccc(Br)cc1	-4%	3	-27	1.5	4
C=CCOC(=O)COc1ccc2c(C)c(C)c(=O)oc2c1C	50%	3	1	0.6	96	Arbovirus anti repeat=2
Cc1cc(Nc2ccc3c(c2)OCCO3)c2cc(Cl)ccc2n1	13%	-2	-28	9.8	3
Cc1ccc(NC(=O)CN2C(=O)NC3(CCc4ccccc43)C2=O)cc1S(=O)(=O)N1CCCCC1 (centres undefined)	x	x	x	14	-9
COc1ccc(/C=N/N2C(C)CCCC2C)cc1OC (centres undefined)	x	x	x	-0.3	-2
O=C(CSc1ccc(-c2ccco2)nn1)NCc1ccccc1Cl	-7%	5	-26	-1.1	-1
CCOCCCNC(=O)CN(c1cc([N+](=O)[O-])ccc1OC)S(C)(=O)=O	-8%	-2	x	0.7	3
Cc1c(C)n(-c2ccc(Cl)cc2)c2ncnc(N)c12	x	x	x	0.2	-1
COc1ccc2[nH]c(=O)c(CN(CCCN(C)C)C(=O)Nc3ccc(F)cc3)cc2c1	-6%	30*	-37	-0.1	2
COc1ccc(NC(=O)CCSc2nnc(C)s2)cc1	-1%	0	-3	-3.0	53
CNc1ccc2c3c(cccc13)C(=O)N(C)C2=O	x	x	x	-295	5
Cn1cc(C(=O)Cc2ccccc2)c2ccccc21	0%	-3	-18	3.2	-2
O=C(CSCc1ccccc1)Nc1cccc(F)c1	10%	-3	-29	5.4	10
Cc1cccc(NC(=O)Nc2ccc(F)cc2)n1	x	x	x	-0.7	11
COc1ccc(N(CC(=O)NCc2ccco2)C(=O)CCC(=O)Nc2nccs2)c(OC)c1	x	x	x	5.7	-5
COc1ccc(-c2[nH]ncc2CNC(C)CCn2cccn2)c(F)c1 (centres undefined)	1%	8	x	-0.9	-5
O=C(c1ccc2c(c1)OCO2)C1CCCN(Cc2ccc3nsnc3c2)C1 (centres undefined)	-8%	-3	x	1.5	-1
CCN(CC)C(=O)NC1CC2CCCC(C1)N2Cc1ccccc1 (centres undefined)	1%	-8	-13	-2.1	u
COc1cccc(NC(=O)C2CCC(CNS(=O)(=O)c3ccc4c(c3)CC(C)N4C(C)=O)CC2)c1 (centres undefined)	x	x	x	1.1	-5
Cc1c(NC(=O)c2ccc(C(C)(C)C)cc2)cccc1[N+](=O)[O-]	12%	0	-16	0.4	1
Cc1cc(C)cc(NC(=O)C(=O)NCC2CCCO2)c1 (centres undefined)	1%	2	x	-4.9	-8
O=C(C1CCCCN1S(=O)(=O)c1ccc(F)cc1)N1CCN(c2ccccc2F)CC1 (centres undefined)	1%	-3	-18	3.2	-7	Arbovirus anti repeat=0
CCCCC(C(=O)NC1CCCC1)N(C(=O)c1snc(C(N)=O)c1N)c1ccc(F)cc1 (centres undefined)	x	x	x	-1.7	-3
C=CCNC(=O)c1onc(CSc2cc(C)cc(C)c2)c1C(=O)O	-2%	16	-76	-0.1	30
CCn1nc(C(=O)NC2=NCCS2)c2ccccc2c1=O	1%	0	-22	x	-1	Arbovirus anti repeat=3
Cc1cc2nc(-c3ccc(NC(=O)c4cccnc4)cc3)oc2cc1C	6%	-7	-37	-1.9	71
O=C(O)c1ccc(CNCc2ccccc2Cl)cc1	-4%	0	-23	-0.6	-6
CC(=O)Nc1cccc([N+](=O)[O-])c1	-3%	5	x	-6.3	-1
Cn1c(=O)oc2cc(S(=O)(=O)CCC(=O)Nc3ccccc3)ccc21	x	x	x	1.2	6
CCOc1ccc(CCNC(=O)c2cc3c(C)nccc3[nH]c2=O)cc1OCC	-5%	-20	x	-5.6	-3
O=C1N=C(c2ccccc2)C(c2ccccc2)N1 (centres undefined)	-2%	-5	-32	0.1	5	Arbovirus anti repeat=1
COc1cc(/C=N/NC(N)=O)ccc1OC(=O)c1ccc(C)cc1	2%	5	0	x	x
Cc1ccc(-n2ncc3c(NCCCN4CCOCC4)ncnc32)c(C)c1	4%	3	-34	1.0	-1	Arbovirus anti repeat=8
O=C(Nc1ncccc1O)c1ccc(Cl)c(S(=O)(=O)N2CCCCCC2)c1	x	x	x	11	-15
CC(=O)OC(COc1ccc(F)cc1)Cn1cnc2ccccc21 (centres undefined)	6%	11	x	0.7	-7
Cc1cc[n+]2n1CC(O)C2 (centres undefined)	1%	x	x	-6.5	-5
c1cc2c3c(cccc3c1)NC1(CCCCCC1)N2	-3%	-11	-1	26	100
CN(Cc1cccc(-n2cccn2)c1)Cc1cn(C)nc1-c1ccccc1F	-6%	1	x	1.0	-1
CN(Cc1nc(-c2cnccn2)no1)Cc1n[nH]c2c1CCCCC2	1%	x	x	0.6	-4
Cc1cccc(-c2noc(CNC(=O)c3ccoc3C)n2)c1	x	x	x	1.5	0
Cc1ccc(/C=N\n2c(-c3ccccc3)n[nH]c2=S)s1	11%	5	-14	0.1	-12
COc1cccc(N2CCN(C(=O)CN(c3ccc(C)cc3)S(=O)(=O)c3c(C)n[nH]c3C)CC2)c1	10%	-9	-56	1.9	6
Cc1nn(-c2ccccc2)c2sc(C(=O)OC3CCOC3=O)cc12 (centres undefined)	x	2	-53	-2.1	-5
COc1cccc(-c2cc(C(=O)N3CCN(Cc4ccc5c(c4)OCO5)CC3)on2)c1	x	x	x	1.9	u
CCN(Cc1ccccc1)C(=O)CCS(=O)(=O)c1ccc2c(c1)oc(=O)n2C	x	x	x	-1.7	-8
Cc1cnc(C(=O)OCC(=O)NC23CC4CC(CC(C4)C2)C3)cn1	5%	4	-24	0.4	x
COc1ccc(Cc2nnc3n2N=C(c2cc4ccccc4o2)CS3)cc1OC	2%	x	-12	1.1	2
O=C(N/N=C1\CCCc2ccccc21)C(O)c1ccccc1 (centres undefined)	-8%	0	-48	5.0	1
CCOc1ccc(NC(=O)N2CCC(NC(=O)C(Cc3ccccc3OC)NC(C)=O)CC2)cc1 (centres undefined)	x	x	x	-0.1	-11
CC(=O)N1C(=O)C2(Nc3ccccc3N2)c2ccccc21	-8%	4	3	-4.0	-2
Cc1cc(N2C(=O)C(O)=C(C(=O)c3cc4ccccc4o3)C2c2cccc(Cl)c2)no1 (centres undefined)	x	x	x	-0.8	23

Next structures:
SMILES	Mtb growth	Arbovirus anti	YopH PTP inh	RecA splice inh	Mtb bLac sens	others
CCN(CCCNC(=O)CCCn1c(=O)[nH]c2ccccc2c1=O)c1cccc(C)c1	2%	2	-37	-1.2	-6
COc1ccc(-c2nc(CS(=O)(=O)CC(=O)NCc3cccc(F)c3)c(C)o2)cc1	x	x	x	0.8	-1
Cc1cc(C)cc(Nc2ccc([N+](=O)[O-])nc2[N+](=O)[O-])c1	0%	4	-50	1.2	6
CCOC(=O)C1=C(CC)Nc2ccccc2N=C1NC(=O)Cn1cnc2ccccc2c1=O	0%	-4	14	1.7	-3
Cc1cc(C)cc(NC(=S)N=Nc2c(O)n(C)c3ccc(S(=O)(=O)N4CCOCC4)cc23)c1	2%	-13	0	-1.1	4
O=C(Nc1ccc(Br)c2ccccc12)c1ccc2ccccc2c1O	6%	x	x	2.6	5
Cc1cc(-c2nn(-c3ccccc3F)cc2CNCCc2cnc[nH]2)c(C)s1	11%	1	x	-1.1	30
C=CCCC(=O)Nc1nc(C)c(-c2csc(Nc3cc(Cl)ccc3OC)n2)s1	68%	-11	-6	9.7	99
COc1ccc2cc3cc(C(=O)NCCN4CCN(c5ccccc5F)CC4)oc3nc2c1	x	-4	-16	1.5	89
Cc1nn(C(C)c2n[nH]c(=S)n2-c2cccc(Cl)c2)c(C)c1[N+](=O)[O-] (centres undefined)	-8%	6	-29	0.8	6
COc1ccc(-n2c(Cc3cccn3C)nnc2SCC(=O)Nc2ccc(F)cc2F)cc1	4%	9	-21	3.5	0
COc1ccc(S(=O)Cc2ccc(C(=O)NC3CC3)o2)cc1 (centres undefined)	x	x	x	0.2	-1
Cc1ccc(C)c(OCc2nc3ccccc3[nH]2)c1	1%	9	x	4.2	-3

16 consecutive entries already listed, quoted:
SMILES	Mtb growth	Arbovirus anti	YopH PTP inh	RecA splice inh	Mtb bLac sens	others
Cc1cccc(CC(=O)N2CCCC2)c1	x	x	x	-1.6	-2
COc1ccc(CCNc2ccncn2)cc1	4%	5	4	-1.3	8
CC1CCC(NC(=O)CCNS(=O)(=O)c2ccc3c(c2)CCC(=O)N3)CC1 (centres undefined)	x	x	x	-1.1	-6
CCCCSc1nnc2n(CCc3ccccc3)c(=O)c3c4c(sc3n12)COC(C)(C)C4	2%	-2	-1	1.6	-7
CCOC(=O)C1=C(C)NC(=O)NC1c1ccco1 (centres undefined)	-2%	4	3	x	-2	Arbovirus anti repeat=1
O=C(Nc1ccc(F)cc1)c1c(O)c2c(n(Cc3ccccc3)c1=O)CCCC2	-5%	1	-18	-1.1	-3
CC(=O)Nc1c(Br)cc(N2C(=O)CCC2=O)cc1Br	-7%	4	-24	1.3	2
COc1ccccc1N1CCN(C(=O)/C=C/c2ccc3c(c2)OCO3)CC1	3%	4	-10	2.3	16
O=S(=O)(c1ccc(F)cc1)N1CCC(N2CCCCCC2)CC1	-3%	-11	-3	2.5	3
O=C(CCc1ccccc1)OCC(=O)c1ccc(Br)cc1	-4%	3	-27	1.5	4
C=CCOC(=O)COc1ccc2c(C)c(C)c(=O)oc2c1C	50%	3	1	0.6	96	Arbovirus anti repeat=2
Cc1cc(Nc2ccc3c(c2)OCCO3)c2cc(Cl)ccc2n1	13%	-2	-28	9.8	3
Cc1ccc(NC(=O)CN2C(=O)NC3(CCc4ccccc43)C2=O)cc1S(=O)(=O)N1CCCCC1 (centres undefined)	x	x	x	14	-9
COc1ccc(/C=N/N2C(C)CCCC2C)cc1OC (centres undefined)	x	x	x	-0.3	-2
O=C(CSc1ccc(-c2ccco2)nn1)NCc1ccccc1Cl	-7%	5	-26	-1.1	-1
CCOCCCNC(=O)CN(c1cc([N+](=O)[O-])ccc1OC)S(C)(=O)=O	-8%	-2	x	0.7	3
